# Mtb MbtI inh: inhibitors of Mycobacterium tuberculosis siderophore enzyme MbtI. P9WFX0. purified MbtI enzyme, fluorescence intensity read-out. inhibition, %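 (about 17 µg/mL by stock and volumes)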. actives 0.89% (n = 100,000);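 active means above 50% in both replicates, above 80% if mildly self-fluorescent; inactive means the rest, strongly fluorescent compounds included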;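 further: 0% = mean of negative and 100% = mean of positive controls; one replicate is shown; some compounds called inactive have numbers as strong as hits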
# Target sequence (P9WFX0 whole entry, looked up): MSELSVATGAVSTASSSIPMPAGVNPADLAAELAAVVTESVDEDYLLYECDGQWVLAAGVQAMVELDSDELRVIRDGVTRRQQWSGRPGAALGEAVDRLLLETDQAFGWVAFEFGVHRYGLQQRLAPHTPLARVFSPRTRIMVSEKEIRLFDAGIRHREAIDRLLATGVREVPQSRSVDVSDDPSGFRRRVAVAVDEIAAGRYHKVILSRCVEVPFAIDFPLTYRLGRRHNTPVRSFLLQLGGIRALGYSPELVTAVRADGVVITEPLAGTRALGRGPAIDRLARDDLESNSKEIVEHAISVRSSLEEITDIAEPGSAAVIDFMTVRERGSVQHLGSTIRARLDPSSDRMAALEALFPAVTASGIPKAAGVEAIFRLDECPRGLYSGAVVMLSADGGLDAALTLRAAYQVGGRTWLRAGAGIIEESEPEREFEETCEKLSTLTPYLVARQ
# Polio RdRp inh: inhibitors of poliovirus RNA polymerase binding and polymerization | P03300 | poliovirus polymerase elongation, fluorescence polarization; hits give low values | % elongation, % (compound at 16.7 µg/mL) | actives 0.66% (n = 150,000); in the data active means % elongation below about 90%; further: some results filed as inactive read as strong as hits
# Target sequence (P03300 1749-2209 limits assumed): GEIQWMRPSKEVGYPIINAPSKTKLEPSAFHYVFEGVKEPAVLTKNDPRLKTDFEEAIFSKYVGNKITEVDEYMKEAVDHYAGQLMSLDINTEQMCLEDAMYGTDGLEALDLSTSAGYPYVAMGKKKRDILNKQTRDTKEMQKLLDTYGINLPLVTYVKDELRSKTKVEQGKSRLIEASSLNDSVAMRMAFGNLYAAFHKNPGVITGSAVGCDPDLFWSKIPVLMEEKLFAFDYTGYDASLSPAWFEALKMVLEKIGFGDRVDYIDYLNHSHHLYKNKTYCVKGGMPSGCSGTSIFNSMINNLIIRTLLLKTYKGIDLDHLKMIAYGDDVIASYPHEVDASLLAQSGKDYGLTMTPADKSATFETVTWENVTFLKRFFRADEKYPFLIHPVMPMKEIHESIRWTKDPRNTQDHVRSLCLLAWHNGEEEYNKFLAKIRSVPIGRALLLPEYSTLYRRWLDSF
# Mtb MenB inh: blocks the Mycobacterium tuberculosis MenB enzyme; MenB enzyme assay, absorbance read-out; some hits fall short of the stated cut; inhibition, %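 (about 12 µg/mL by stock and volumes)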; actives 0.43% (n = 100,000); AID 540299;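 active means mean of two replicates above 30%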;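 further: 0% = no compound and 100% = wells with inactive enzyme; the first replicate is given; strong numbers were not always called active; inactives centre near -10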
# Polio RdRp inh intensity: also measured in Polio RdRp inh; calls as there; % elongation; measured here: total intensity read-out; formula for this scale not given here;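 total fluorescence in place of polarization; lower means less elongation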
# The depositor's hits bear a star; i = inactive; / = not tested or not shown. Compounds were not picked by outcome; any-hit rate near 2%.
compound	Mtb MbtI inh	Polio RdRp inh	Polio RdRp inh intensity	Mtb MenB inh
CCO/C=N/Nc1nc(C(F)(F)F)nc2c1cnn2-c1ccccc1	27.1	95.0	99.0	-26.1
COc1ccc(C2C(C#N)=C(N)N3CCc4cc(OC)c(OC)cc4C3=C2C#N)cc1 (stereo unspecified)	-5.3	104.0	215.0	4.2
CCC1(C)CC(CCN2C(=O)c3ccccc3C2=O)(c2ccc(C)cc2)CCO1 (stereo unspecified)	7.8	100.0	97.0	2.0
O=C(NCC1CC1)c1ccccc1NS(=O)(=O)c1ccc(F)cc1F	-4.5	104.0	109.0	-6.1
Nc1c(C(=O)NCc2ccco2)nnn1-c1ccc(Cl)cc1	2.0	100.0	102.0	-0.5
C=C(C)CN(CC)Cc1cc(OC)cc(OC)c1	-13.4	100.0	105.0	-34.1
Cc1ccc(CCNC(=O)C2CCN(c3nnc(-n4cccc4)s3)CC2)cc1	-3.5	103.0	103.0	-21.0
CCN1CCN(C(=O)C(c2ccccc2)c2ccccc2)CC1	-8.1	100.0	95.0	/
O=C(CSc1nnc(OC(=O)c2cccs2)n1C1CC1)c1ccc2c(c1)OCCO2	1.1	107.0	101.0	-7.1
Cc1cc(C(=O)NCC2COc3ccccc3O2)c2ccccc2n1 (stereo unspecified)	6.1	105.0	108.0	-2.4
Cc1oc(-c2ccccc2)nc1C(=O)Nc1ccccc1C(=O)NC1CC1	16.6	100.0	98.0	-14.1
CCn1cc(C(CC(=O)O)C(=O)O)c2ccccc21 (stereo unspecified)	89.3	102.0	103.0	-7.3
COc1cc(S(=O)(=O)N2CCN(c3cc(C)ccc3C)CC2)c(OC)cc1Cl	-10.9	100.0	103.0	-4.8
CC12CCCCN1CCCc1c2[nH]c2ccccc12 (stereo unspecified)	-53.5	100.0	108.0	-31.9
Cc1[nH]c2ccccc2c1C=Nc1ccc(N=Cc2c(C)[nH]c3ccccc23)cc1	/	118.0	128.0	-30.0
Cc1ccc(CSc2nc3ccc(C(=O)N4CCN(c5ccccc5)CC4)cc3n2C)cc1	7.0	103.0	102.0	-9.7
O=S1(=O)CC(c2ccccc2)CS(=O)(=O)C12CCCC2	1.2	102.0	102.0	-32.1
O=S(=O)(/N=C(/NC(=S)OC1CCCCC1)c1ccccc1)c1ccccc1	39.9	104.0	96.0	-12.5
CCCC(=O)N1CCN(c2ccc(NC(=S)NC(C)=O)cc2Cl)CC1	-10.1	104.0	102.0	-13.8
CCCCN(C)C(=O)c1cn(CC)c2nc(C)ccc2c1=O	-6.4	100.0	102.0	1.0
Cc1nn(Cc2ccccc2Cl)c2sc(C(=O)NC3CC3)cc12	3.3	102.0	103.0	-28.6
CS(=O)(=O)N1CCC(c2noc(-c3ccc(C(F)(F)F)cc3)n2)CC1	-10.8	101.0	104.0	-10.9
CC(C)C(=O)c1c(O)c2ccccc2oc1=O	-2.5	100.0	100.0	-14.4
CC1Cn2cc(C(=O)Nc3cccc(F)c3)c(=O)c3c(Cl)ccc(c32)O1 (stereo unspecified)	14.3	102.0	105.0	7.6
C/C(=N/O)c1ccc2c(c1)OCCO2	-2.2	101.0	102.0	6.2
C=CCN1CCN(Cc2nnnn2Cc2ccc(OC)cc2)CC1	1.4	103.0	101.0	42.3*
N#CCSc1ccc2nnc(CCNS(=O)(=O)c3ccccc3)n2n1	i	101.0	102.0	-19.3
CCOC(=O)Cn1c(=N)n(Cc2ccc(Cl)c(Cl)c2)c2ccccc21	6.2	102.0	96.0	-24.8
CCN(CC)c1ccc(/C=N/NC(=O)c2ccccc2)cc1	-148.9	100.0	102.0	-179.0
Cc1cc(C)n(C2CC(=O)N(N(C)C)C2=O)n1 (stereo unspecified)	-15.9	102.0	103.0	-9.5
CCCn1c(C(=O)c2ccc(OC)cc2)nc2ccccc21	/	101.0	104.0	-21.5
Cc1ccc(C)c(NC(=O)CSC2=NC3C(=O)N(C)C(=O)N(C)C3N2C)c1 (stereo unspecified)	-2.6	103.0	105.0	-7.2
COc1ccccc1NC(=O)/C(C#N)=C/c1cn(C)c2ccccc12	-3.8	104.0	104.0	-33.8
Fc1cccc(F)c1C=Nc1ccc(-c2nc3ccccc3[nH]2)cc1	106.2	101.0	108.0	/
COc1nsc(NN)c1C#N	/	106.0	105.0	2.1
Cn1nnnc1SCC(=O)CSc1nnnn1C	21.5	105.0	104.0	-12.7
O=C1c2cccc3cccc(c23)N1C(=O)C1CCCCC1	11.8	102.0	102.0	2.9
Cc1nn(-c2ccccc2)nc1C(=O)ONC(=O)c1ccccc1	-10.8	99.0	94.0	10.6
CCCNc1c(NC(=O)c2ccc3c(c2)OCO3)c(=O)oc2ccccc12	-15.0	101.0	104.0	0.0
O=C(O)c1c[nH]c2ccc(F)cc2c1=O	/	110.0	112.0	-7.8
Cn1c(=O)c2c(ncn2CCCCn2cnc3c2c(=O)n(C)c(=O)n3C)n(C)c1=O	-9.2	109.0	119.0	5.9
c1ccc(CCn2c(SCc3nnc(-c4ccccc4)o3)nc3ccccc32)cc1	4.8	104.0	106.0	-18.6
N#CCC(=O)Nc1ccc(C(F)(F)F)cc1N1CCOCC1	-5.0	101.0	99.0	/
S=c1nccc(-c2ccccc2)[nH]1	98.6	83.0*	86.0*	-46.7
Cn1c(/C=C/C=C/N2CCCC2)nc2ccccc2c1=O	41.8	108.0	104.0	3.4
Cc1cc(C)c(C)c(S(=O)(=O)N2CCNCC2)c1C	7.4	102.0	96.0	/
O=C1c2ccccc2C(=O)N1COc1cccc2cccnc12	1.4	103.0	105.0	19.4
O=C(NCc1cccs1)c1cc(-c2ccccc2)oc1C(F)(F)F	-7.2	104.0	107.0	-9.3
CCc1cccc2c(C(=O)CSc3nnnn3C3CCCC3)c[nH]c12	-2.5	105.0	106.0	-37.2
O=C(CC1CCCC1)NC12CC3CC(CC(C3)C1)C2	-6.5	103.0	102.0	/
CCOc1ccccc1NC(=O)C1CCN(c2ncccn2)CC1	10.8	103.0	99.0	21.9
O=c1[nH]c2cc(C(F)(F)F)ccc2n(Cc2ccccc2)c1=O	/	90.0	106.0	-20.3
CC1CCN(S(=O)(=O)c2cc(Br)ccc2Br)CC1	3.2	101.0	99.0	-17.7
CC(=O)N(Cc1nc(-c2ccccc2)no1)C1CCCCC1	-6.2	99.0	99.0	-10.8
CC(=O)NC1c2ccccc2Oc2ccccc21	-5.8	101.0	105.0	-15.0
CC(C)Sc1ccc2nnc(-c3cccnc3)n2n1	61.9	102.0	102.0	-10.9
CC(=O)O[C@]1(C)C(=O)OC/C2=C/CN(C)CCC(OC(=O)[C@@](O)(C(C)O)C[C@@H]1C)C2=O (stereo partly specified)	-2.6	100.0	102.0	-1.6
CCOC(=O)C(C)Oc1cccc2c(=O)n(CC(=O)NC3CCCCC3)ccc12 (stereo unspecified)	25.6	106.0	108.0	-16.6
Cc1cc2cc(CNC(=O)c3ccc4ccccc4c3)ccc2[nH]1	-3.2	99.0	97.0	-18.8
CSc1nc(-c2ccccc2)ccc1C(N)=O	59.5	100.0	101.0	-72.2

# Some of these compounds in order of length of the SMILES, largest number first.
compound	Mtb MbtI inh	Polio RdRp inh	Polio RdRp inh intensity	Mtb MenB inh
CC(=O)O[C@]1(C)C(=O)OC/C2=C/CN(C)CCC(OC(=O)[C@@](O)(C(C)O)C[C@@H]1C)C2=O (stereo partly specified)	-2.6	100.0	102.0	-1.6
O=c1[nH]c2cc(C(F)(F)F)ccc2n(Cc2ccccc2)c1=O	/	90.0	106.0	-20.3
O=C(NCc1cccs1)c1cc(-c2ccccc2)oc1C(F)(F)F	-7.2	104.0	107.0	-9.3
Cc1cc(C)c(C)c(S(=O)(=O)N2CCNCC2)c1C	7.4	102.0	96.0	/
O=C(CC1CCCC1)NC12CC3CC(CC(C3)C1)C2	-6.5	103.0	102.0	/
CC(=O)NC1c2ccccc2Oc2ccccc21	-5.8	101.0	105.0	-15.0

# Continued:
compound	Mtb MbtI inh	Polio RdRp inh	Polio RdRp inh intensity	Mtb MenB inh
CN(C)CCNc1cc(-c2cccnc2)nc2ccccc12	-7.1	93.0	74.0	-3.0
N#CCC(=O)NN=C1CCCCCCCCCCC1	-2.1	98.0	100.0	-12.8
c1ccc(Nc2ccccc2)cc1	-7.6	104.0	105.0	-15.8
CCCc1nc(NCc2ccccc2)c(C#N)c2c1CCCC2	18.4	101.0	98.0	-7.2
CCOC(=O)c1ccc(NC(=O)/C=C/c2cccc(C(F)(F)F)c2)cc1	-9.6	103.0	106.0	/
C1CCOC(CN2CCCC2)OC1	-1.8	101.0	101.0	9.3
CC(Oc1ccc(C(C)(C)C)cc1)C(N)=O (stereo unspecified)	4.0	98.0	101.0	-6.3
Cn1c(O)c(C=NCC2CCN(C(=S)Nc3ccccc3)CC2)c(=O)n(C)c1=O	24.9	100.0	101.0	20.2
Cc1ccc(NS(=O)(=O)c2cccc(C(=O)NN3CCOCC3)c2)cc1	14.1	101.0	106.0	-15.3
COc1ccccc1NC(=O)Cc1noc(CN(C)Cc2cccs2)n1	1.0	102.0	102.0	8.4
O=C(Cn1ncn2nc(-c3ccccc3)cc2c1=O)NCC1CCCO1 (stereo unspecified)	18.7	101.0	102.0	-16.3
CCOC(=O)C1CCN(/C=C(\C#N)S(=O)(=O)c2ccccc2)CC1	-3.0	111.0	114.0	-0.2
COc1ccc(Nc2oc(-c3ccc(OC)cc3)nc2C#N)cc1	i	99.0	102.0	-33.1
Cc1[nH]n(-c2nc3ccccc3s2)c(=O)c1C	99.2	105.0	102.0	-9.9
O=C(O)CN1Cc2ccccc2C1	-3.4	102.0	104.0	-12.6
CCc1nnc(NC(=O)C2=CN3CCS(=O)(=O)N=C3C=C2)s1	106.5	100.0	98.0	-16.2
O=C(CN=C1NS(=O)(=O)c2ccccc21)OCC(=O)c1ccccc1	-8.8	101.0	110.0	-10.8
CCCNC(=O)NCc1ccc(N2CCCC2=O)cc1	-6.3	102.0	103.0	-6.8
COc1cc(NC(=O)N2CCOc3ccccc32)cc(OC)c1OC	7.8	100.0	102.0	-13.2
CC1(C)Cc2cccc(OCC(=O)Nc3ccc(OCC(N)=O)cc3)c2O1	-5.3	105.0	101.0	-34.3
COc1ccc(-c2cc(C(=O)NC3CCCCC3C)c3ccccc3n2)cc1 (stereo unspecified)	105.1	102.0	105.0	-10.6
C=CCNC(=O)CN1CCC(C(O)(c2ccccc2)c2ccccc2)CC1	-4.2	103.0	105.0	-18.2
N#CC1(C(=O)OCC(=O)N2CCN(C(=O)COC(=O)C3(C#N)CCCC3)CC2)CCCC1	-7.1	103.0	108.0	-20.3
CCOC(=O)Cc1csc(NS(=O)(=O)c2cn(C)cn2)n1	3.0	105.0	102.0	11.5
Cc1ccc(CN2CCCC(CO)C2)cc1 (stereo unspecified)	-6.2	100.0	101.0	-23.0
COc1ccc(OCCSc2nc3ccccc3s2)cc1	-6.5	103.0	107.0	-17.5
Cn1ccc(NC(=O)/C(C#N)=C/c2ccc(Cl)cc2)n1	-4.9	102.0	103.0	-8.5
CC(C)NCc1ccc2c(c1)OCO2	-14.9	102.0	100.0	5.1
CN(C)S(=O)(=O)c1ccc2oc(NN)nc2c1	-1.7	103.0	105.0	4.0
NC(=O)CSc1nc2ccccc2c(=O)n1-c1ccccc1	-5.4	100.0	98.0	/
O=C(NCc1ccco1)/C(=C\c1ccc(Br)cc1)NC(=O)c1ccccc1	-24.0	100.0	105.0	-25.8
O=C1COc2cc(S(=O)(=O)CCC(=O)N3CCCCCC3)ccc2N1	-11.9	101.0	107.0	-7.0
CC(=O)N(Cc1ccccc1)C1CCCc2c1[nH]c1ccc(C)cc21 (stereo unspecified)	6.2	104.0	98.0	13.5
CCOc1ccc(NC(=O)CC#N)cc1	-11.9	102.0	105.0	/
O=C(CN1C(=O)c2ccccc2C1=O)Nc1ccc(S(=O)(=O)Nc2nccs2)cc1	-0.5	103.0	104.0	-3.7
Cc1c2ccc(=O)ccc2c(C)n1C	36.2	101.0	100.0	-89.3
O=C(NCCc1ccccc1)C1CCCCC1C(=O)OCC(F)(F)F (stereo unspecified)	/	105.0	109.0	-7.6
O=C(O)C1Cc2c([nH]c3ccccc23)C(c2ccccc2)N1 (stereo unspecified)	-18.1	100.0	114.0	/
O=C1c2ccccc2-c2nc3ncnn3c(-c3ccc4c(c3)OCO4)c21	-0.5	102.0	102.0	-10.3
CCOC(=O)CNc1cccc(C(F)(F)F)c1	/	101.0	104.0	-20.5
O=c1c(O)c(-c2ccc(F)cc2)oc2cc(Cl)ccc12	-14.5	103.0	99.0	-11.2
COc1ccc(Cn2nnnc2CN2CCN(C)CC2)cc1	-4.3	100.0	101.0	7.4
O=S(=O)(c1ccc(Oc2ncnc3c2oc2ccccc23)cc1)N1CCOCC1	6.8	101.0	102.0	9.3
CN(C)c1ccc(C(=O)c2ccccc2C(=O)O)c(O)c1	4.2	102.0	103.0	-26.5

# High-throughput results: PubChem BioAssay, ICCB-Longwood Screening Facility, Harvard Medical School
